Screens (PubChem BioAssay)
UCH37 DUB inh: inhibitors of human UCH37 deubiquitinase, primary screen, biochemical, Ub-AMC cleavage, fluorescence; Ubiquitin carboxyl-terminal hydrolase isozyme L5 (Homo sapiens), Q9Y5K5; purified proteasome/UCH37; inhibition, % (no concentration beside the values); hit rate 0.33% among 330,000;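 active means mean of two replicates above 20%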;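 further: 0% = compound-free wells with enzyme and 100% = wells lacking proteasome; stock transfer was 100 nL into about 20 µL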
Target sequence (Q9Y5K5 whole entry, looked up): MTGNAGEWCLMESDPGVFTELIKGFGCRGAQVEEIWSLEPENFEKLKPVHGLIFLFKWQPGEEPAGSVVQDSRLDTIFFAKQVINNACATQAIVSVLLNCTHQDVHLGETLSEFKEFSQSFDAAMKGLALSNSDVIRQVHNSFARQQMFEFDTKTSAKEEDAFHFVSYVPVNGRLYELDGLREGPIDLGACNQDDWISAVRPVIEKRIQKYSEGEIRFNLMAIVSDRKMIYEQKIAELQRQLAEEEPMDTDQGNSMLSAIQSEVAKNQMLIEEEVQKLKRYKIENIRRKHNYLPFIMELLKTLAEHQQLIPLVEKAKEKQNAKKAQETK
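Material: human UCH37 enzyme supplied as purified proteasome complex. Measure: % inhibition of Ub-AMC cleavage fluorescence. Medium: pH 7.4 Tris-HCl (50 mM) with ovalbumin, ATP-MgCl2, DTT. Times: 30 min preincubation with enzyme, 25 min cleavage at room temperature. Detection: AMC fluorescence intensity at 355/460 nm.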
FGF22 binding: binders of human FGF22 protein, primary screen, FGF22 synaptogenesis inhibitor project, biophysical, thermal shift, single point | Fibroblast growth factor 22 (Homo sapiens), Q9HCT0 | recombinant FGF22 thermal shift, SYPRO orange fluorescence; percent of sucrose octasulfate shift, DMSO zero | AID 651658, 2012 | calls only at 9.99 µM | hit rate 1.5% among 340,000;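 active means melting point raised past a set limit in the mean and every replicate; inconclusive means no clear call; three in four hits are not shown here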
Ecoli rRNA inh: reduced GFP signal of wild-type E. coli, primary screen, bacterial rRNA inhibitor project, GFP/RFP fluorescence, OD600, single point | E. coli WT GFP vs humanized-ribosome RFP mutants, 24 h; active compounds read low; DMSO median 0, no signal -100 | GFP signal change (wild-type ribosome), % (test concentration not listed) | AID 720706, 2013 | hit rate 1.6% among 350,000;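 active means significant combined selectivity score with lowered wild-type GFP, culture density cut under 30%, mutant RFP and density less affected; inactive means any of these conditions unmet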; further: one replicate is shown; some compounds called inactive have numbers as strong as hits
ALR inh: inhibitors of human ALR sulfhydryl oxidase, primary screen, biochemical, H2O2 detection, HRP-luminol luminescence, single point. purified ALR, DTT oxidation. hit rate 3.8% among 290,000. AID 485317, 2010. FAD-linked sulfhydryl oxidase ALR (Homo sapiens), P55789. inhibition, % (no concentration beside the values);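 active means mean and each replicate at 75% or more; inconclusive means only one of the two met; inactive means neither met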;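 further: stock transfer was 7.5 nL into about 7.5 µL; 0% = neutral wells and 100% = wells with inactivated enzyme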
Target sequence (P55789 whole entry, looked up): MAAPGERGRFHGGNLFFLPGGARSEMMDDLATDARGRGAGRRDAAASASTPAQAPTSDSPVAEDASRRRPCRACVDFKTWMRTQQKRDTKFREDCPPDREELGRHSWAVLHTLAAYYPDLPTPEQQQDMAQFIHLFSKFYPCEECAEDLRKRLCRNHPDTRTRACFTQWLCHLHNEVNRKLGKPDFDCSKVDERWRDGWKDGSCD
E coli growth: E. coli growth inhibition, primary screen, OD600. Escherichia coli growth, 23 h; active compounds read low. OD600 absorbance (concentration not given with the values). hit rate 0.21% among 330,000;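 active means OD600 absorbance below the run mean of sample wells minus 3.6 SD, in any replicate, cut at about 0.56 in these data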;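 further: stock transfer was 300 nL into about 60 µL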
B2AR ag: beta2AR agonists driving receptor internalization, primary screen, cell-based, FAP fluorogen, flow cytometry | Beta-2 adrenergic receptor (Homo sapiens), P07550 | Am2.2-beta2AR cells; reference of the scale not given here | response, % (no concentration beside the values) | hit rate 0.43% among 340,000;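 active means response above a set limit, near 3 SD of response in nonfluorescent compounds, cut at about 42% in these data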;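 further: stock transfer was 100 nL into about 11 µL; a reference agonist was the positive control; negative values mostly stem from fluorescent compounds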
Target sequence (P07550 whole entry, looked up): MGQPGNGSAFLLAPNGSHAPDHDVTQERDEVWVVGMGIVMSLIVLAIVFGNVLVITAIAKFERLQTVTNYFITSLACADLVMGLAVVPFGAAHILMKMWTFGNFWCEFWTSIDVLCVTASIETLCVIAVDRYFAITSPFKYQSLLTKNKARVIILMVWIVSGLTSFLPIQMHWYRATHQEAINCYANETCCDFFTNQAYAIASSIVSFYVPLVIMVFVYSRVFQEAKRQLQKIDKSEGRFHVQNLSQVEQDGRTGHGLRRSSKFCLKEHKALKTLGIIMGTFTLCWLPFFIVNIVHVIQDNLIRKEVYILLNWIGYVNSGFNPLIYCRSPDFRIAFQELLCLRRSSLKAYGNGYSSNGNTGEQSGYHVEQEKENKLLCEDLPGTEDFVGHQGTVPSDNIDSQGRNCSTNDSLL
HNF4A DNA FP: change in binding of human HNF4A to DNA, primary screen, biochemical, fluorescence polarization, FITC-DNA. 1 h. activity change, % at 10 µM. hit rate 0.3% among 360,000; in the data active means activity change above about 30%, passing the limit was not always enough;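 further: controls were the assay level and a saturating level of protein; the project sought stronger binding though the title names inhibitors; some compounds called inactive have numbers as strong as hits; positive values seem to mean higher polarization but the record does not say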
Ecoli rRNA inh OD600: further read-out of Ecoli rRNA inh, marked with its call; OD600 change, %; measured here: OD600 growth;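 optical density of the mix in the first replicate; 0 = DMSO median and -100 = no signal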
Ecoli rRNA inh RFP: further read-out of Ecoli rRNA inh, marked with its call; RFP signal change, %; measured here: RFP humanized mutant strains;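 first replicate; 0 = DMSO median and -100 = no signal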
* marks the source's active call; other numbers are inactive results; i = inactive; ? = inconclusive; · = no result given; + = active, no number. The list is partial, so the mix of outcomes need not match the whole.

SMILES	UCH37 DUB inh	FGF22 binding	Ecoli rRNA inh	Ecoli rRNA inh OD600	Ecoli rRNA inh RFP	ALR inh	E coli growth	B2AR ag	HNF4A DNA FP
COC(=O)C1CCCCN1C(=O)c1ccc2oc(Cc3ccccc3)nc2c1 (stereo not drawn)	-1.2	i	-5	-8	0.2	-14	0.69	-4	3.6
NC(=O)CN(c1ccc(Oc2ccccc2)cc1)S(=O)(=O)c1ccccc1	3.2	i	-8	-15	-0.3	-18	0.7	-14	1.4
O=C(NC1=NCCS1)C1CCN(S(=O)(=O)c2ccccc2C(F)(F)F)CC1	2.3	i	9	4	4.0	1	0.64	1	-1.2
Cc1ccc(C(=O)N2CCCC(CCC(=O)NCc3ccccc3F)C2)cn1 (stereo not drawn)	0.0	i	3	15	4.2	-11	0.72	-6	5.4
COc1ccccc1NC(=O)Nc1ccc(C(N)=O)cc1	0.3	i	5	8	4.2	-3	0.68	5	0.4
Cc1ccc(S(=O)(=O)N2[C@@H](c3ccc(F)cc3)C(C(=O)O)=CC[C@H]2c2ccc(Cl)cc2)cc1	2.8	+	-48	-73	-23	17	·	-2	1.9
Cc1ccc(S(=O)(=O)N2CCN(CC(=O)N/N=C/c3ccccc3OCC(=O)O)CC2)cc1	·	i	8	2	-1.9	-6	·	·	·
Cc1ccc(CN2CCC(Oc3cccc(C(=O)N(C)CCN(C)C)c3)CC2)cc1C	0.0	i	2	2	1.7	1	0.68	-6	0.6
O=C(Nc1sc2c(c1C(=O)O)CCCC2)c1cccc(Cl)c1	0.4	i	-20	-40	-4.3	53	0.64	4	3.0
Cc1ccc(C)c(NC(=O)COC(=O)c2ccc3c(c2)OCO3)c1	5.5	i	3	1	4.9	-8	0.71	-3	-1.4
COc1ccc(S(=O)(=O)N2CCC[C@H]2C(=O)N2CCC[C@H]2C(=O)NCc2ccncc2)cc1C	·	i	-1	1	-0.3	·	·	·	0.0
COc1ccc(C(C)=O)cc1COC(=O)C1CC(=O)N(Cc2ccccc2)C1 (stereo not drawn)	-1.7	i	1	1	-2.5	-8	0.71	-5	-1.8
CC(C)(C)c1nnc2sc(SCC(=O)N3CCCc4ccccc43)nn2c1=O	10.0	·	·	·	·	99*	0.66	-4	-3.0
COn1c(-c2ccccc2)nc2ccc(Cl)cc21	-0.9	·	·	·	·	·	0.59	-8	1.9
COc1ccc(-c2oc3ccc(N4CCOCC4)cc3c2/C=C/c2ccc(OC)c(OC)c2)cc1	-160	i	6	2	2.9	-6	·	5	2.7
CC1(C)CC2CC(C)(CN2C(=O)COC(=O)c2cccnc2Cl)C1 (stereo not drawn)	3.1	i	-1	4	-2.1	-1	0.69	-3	1.0
Cc1cc(C)n(-c2nc(NCC(C)O)c3c4c(sc3n2)CCCC4)n1 (stereo not drawn)	-61	·	·	·	·	-7	0.73	3	-0.7
CCN(c1ccccc1)S(=O)(=O)c1ccc(NC(=S)NC(=O)c2cccs2)cc1	-0.6	·	·	·	·	-1	0.69	-1	108
Cc1cc(Br)ccc1SCC(=O)Nc1cccnc1	-3.1	i	-17	-8	-1.6	-10	0.66	8	-6.0
COc1ccc(SCC(=O)Nc2ccccc2Cl)cc1	0.1	i	-32	-32	-6.0	-14	0.65	7	-2.4
CCOc1ccc(C2C(C(=O)O)c3ccccc3C(=O)N2CCN2CCOCC2)cc1 (stereo not drawn)	-1.3	·	·	·	·	-1	0.71	4	-0.1
CCc1ccccc1NC(=O)Nc1ccon1	-1.3	i	3	-1	1.9	-20	0.66	-10	-0.1
CCc1ccccc1N(C(=O)CCC(=O)Nc1cc(C)on1)C(C(=O)NC1CCCC1)c1ccco1 (stereo not drawn)	5.3	·	·	·	·	-9	0.72	-6	-2.8
Fc1cccc(CNc2ncnc3ccc(-c4ccc5c(c4)OCO5)cc23)c1	-6.6	i	-32	-57	-17	-2	0.67	0	2.1
CCOCCCn1c(SCC(=O)Nc2cccc(OC)c2)nc2ccccc2c1=O	2.4	i	-24	-30	-2.9	43	0.7	3	0.5
COCc1cc(C)nc2oc(C(=O)c3ccccc3)c(N)c12	-11	i	21	-3	0.1	8	0.7	-11	2.9
COC(CNC(=O)[C@H](CSCc1ccccc1)N1Cc2ccccc2C1=O)OC	2.6	·	19	12	-2.6	-2	·	6	2.8
O=C(NCC1CCCO1)c1ccccc1OCc1ccc(F)cc1 (stereo not drawn)	-1.2	i	3	2	0.2	-4	0.71	-6	0.3
COc1ccc2nc(NC(=O)CN3C(=O)NC4(CCCC4)C3=O)sc2c1	1.0	i	-7	-8	-2.9	·	0.69	2	2.5
CCCC(=O)NCCSC	7.3	·	·	·	·	2	0.74	0	-1.8

4 entries out of the list, arranged by SMILES length, lowest first.
SMILES	UCH37 DUB inh	FGF22 binding	Ecoli rRNA inh	Ecoli rRNA inh OD600	Ecoli rRNA inh RFP	ALR inh	E coli growth	B2AR ag	HNF4A DNA FP
CC1(C)CC2CC(C)(CN2C(=O)COC(=O)c2cccnc2Cl)C1 (stereo not drawn)	3.1	i	-1	4	-2.1	-1	0.69	-3	1.0
CCOCCCn1c(SCC(=O)Nc2cccc(OC)c2)nc2ccccc2c1=O	2.4	i	-24	-30	-2.9	43	0.7	3	0.5
Fc1cccc(CNc2ncnc3ccc(-c4ccc5c(c4)OCO5)cc23)c1	-6.6	i	-32	-57	-17	-2	0.67	0	2.1
CCc1ccccc1N(C(=O)CCC(=O)Nc1cc(C)on1)C(C(=O)NC1CCCC1)c1ccco1 (stereo not drawn)	5.3	·	·	·	·	-9	0.72	-6	-2.8

Next section.
SMILES	UCH37 DUB inh	FGF22 binding	Ecoli rRNA inh	Ecoli rRNA inh OD600	Ecoli rRNA inh RFP	ALR inh	E coli growth	B2AR ag	HNF4A DNA FP
CCCCCc1c(-c2cccc(Cl)c2)ncn1CCc1ccccc1OC	·	i	0	1	0.0	·	·	·	0.1
CCOc1cccc(-c2c(C(=O)N/N=C/c3sccc3C)nnn2-c2nonc2N)c1	·	i	-17	-23	1.5	4	·	-6	-1.4
Cc1cc(C)cc(NC(=O)c2cc(S(=O)(=O)NCc3ccco3)ccc2F)c1	0.3	·	·	·	·	-5	0.75	4	0.0
CC1=NN(c2ccc(N)cc2)C(=O)C1	0.2	·	6	19	-4.4	3	0.7	-3	-0.5
CC(C)(C)OC(=O)CNC(=O)c1[nH]cnc1C(=O)NC1CCN(C(=O)OC(C)(C)C)CC1	-1.1	i	2	-9	20	4	·	5	·
CS(=O)(=O)c1ccc(Cl)c(NC(=O)Nc2ccccc2)c1	1.5	i	-8	-8	-7.5	-4	0.7	-8	2.5
COc1ccc(OC)c(C2c3[nH]c4ccccc4c3C[C@H]3C(=O)N(C4CC4)CC(=O)N23)c1 (stereo partly drawn)	1.6	i	-6	2	3.1	·	0.7	-3	2.7
C/C=C(/C)C(=O)O[C@@H]1c2c(ccc3ccc(=O)oc23)O[C@@H]1C(C)(C)OC(=O)/C(C)=C\C	-0.9	i	10	0	-0.9	-5	·	-8	1.2
Cc1nn(CC(=O)NCC2CCCO2)c(C)c1[N+](=O)[O-] (stereo not drawn)	3.4	·	18	6	1.3	-4	0.74	5	5.2
CC(C)C(N)c1csc(Nc2ccc(S(C)(=O)=O)cc2)n1 (stereo not drawn)	·	i	2	13	-2.8	·	·	·	3.5
COc1ccc(CCNC(=O)[C@@H](NC(=O)N2CC(=O)Nc3ccccc32)C(C)C)cc1OC	2.4	i	6	9	-0.8	-2	0.68	0	3.7
O=C(CC1(O)C(=O)N(Cc2cccc3ccccc23)c2ccccc21)c1cccnc1 (stereo not drawn)	3.7	·	·	·	·	·	0.69	-6	1.5
Nc1nc(-c2nc3ccccc3[nH]2)cs1	1.2	·	·	·	·	-5	0.73	5	-7.4
O=C(N/N=C/c1ccc(OC(F)F)cc1)c1cc[n+]([O-])cc1	·	i	2	12	-1.0	-6	·	9	3.6
CCCCN1C(=O)C(O)(c2ccccc2)c2cc(Br)ccc21 (stereo not drawn)	3.0	i	-10	-30	3.5	-2	0.69	18	-1.3
CCOC(=O)N1CCN(C(=O)c2cn(CC(C)C)c(=O)c3c2c2ccccc2n3C)CC1	-114	·	·	·	·	-14	0.69	-3	3.4
CN(C)c1ncnc2[nH]ncc12	2.4	i	6	16	7.4	·	0.71	-8	0.6
CCCCCCCCCC1(CC(=O)OCC)SCCN1C(N)=O (stereo not drawn)	·	i	-2	3	-2.5	·	·	·	-2.3
CCC(CO)NC(=O)c1ccccc1C(F)(F)F (stereo not drawn)	-1.3	i	7	1	-3.5	-6	0.71	3	0.2
O=C(Nc1cccc2ccccc12)N1CCN(c2ccccc2)CC1	-0.1	·	·	·	·	·	0.68	0	1.0
CCOc1ccc(N(CC(=O)NC2CCCC2)C(=O)CSc2nnc(COc3ccccc3)o2)cc1	5.8	·	·	·	·	-3	0.7	-9	-4.0
COc1ccc(/C=N/NC(=O)c2ccc(N)cc2)cc1Cn1cc([N+](=O)[O-])cn1	·	·	-14	-2	-5.6	9	·	-4	-4.3
COc1ccc(S(=O)(=O)N2CCOC2CNC(=O)C(=O)NCc2ccco2)cc1C (stereo not drawn)	3.2	i	-3	-6	-8.5	-5	0.64	-2	-1.4
Cc1cccc(C(=O)Nc2ccc(NC(=O)c3ccccc3)cc2)c1	6.4	i	-11	-14	-1.5	0	0.67	5	-1.7
COc1cc(-c2nnc(-c3ccc(N4CCOCC4)cc3)o2)cc(OC)c1OC	-330	·	·	·	·	-9	0.69	4	1.0
COc1ccccc1NC(=O)CSc1nnc(COc2ccc(Cl)cc2)o1	2.4	i	-12	-17	11	-3	0.65	1	1.7
COc1ccc(/C=C/C(=O)OCC(=O)NCCCc2ccccc2)cc1OC	-26	i	-30	-27	-2.8	4	0.65	0	-1.7
COc1ccc(C#Cc2cccc(-c3nc(C(=O)NCCCN4CCOCC4)cc4c3[C@H](CCO)N(S(=O)C(C)(C)C)C4)c2)cc1OC (stereo partly drawn)	·	i	-5	-5	30	·	·	·	12
CCc1cc(C(=O)N2CCCC(CO)(Cc3ccc(F)cc3)C2)n(C)n1 (stereo not drawn)	2.0	i	5	4	-0.1	-1	0.69	2	-1.7
O=C(O)c1cccc(N/N=C/c2cccnc2)c1	·	i	14	15	1.2	·	·	0	-1.2
CN(CC(=O)Nc1c(Cl)cccc1Cl)C(=O)CNC(=O)c1ccc2c(c1)OCO2	-0.1	i	0	-6	-1.0	-6	0.65	-10	-1.8
C/C(=N\NC(=S)Nc1cccc(C)c1)c1cc2ccccc2o1	·	i	-12	-5	1.1	-10	·	-6	1.1
O=C(COc1ccc(S(=O)(=O)N2CCOCC2)cc1)NCc1ccccc1	1.6	i	8	5	0.4	-1	0.71	-2	-0.7
COc1ccc(NC2CCCN(C(=O)c3cccc(C)n3)C2)cc1OC (stereo not drawn)	-0.2	i	20	19	5.3	?	0.68	-1	1.2
Cc1ccc(S(=O)(=O)N2CCOCC2)cc1NC(=O)CSc1nnc(NC2CC2)s1	0.2	i	2	4	2.4	-14	0.68	-1	-1.7

A few values from the list:
For Ecoli rRNA inh, CN(CC(=O)Nc1c(Cl)cccc1Cl)C(=O)CNC(=O)c1ccc2c(c1)OCO2 is entered as 0
For Ecoli rRNA inh OD600, Cc1ccc(S(=O)(=O)N2CCOCC2)cc1NC(=O)CSc1nnc(NC2CC2)s1 is entered as 4
